# Assay outcomes from PubChem.
# PrP UTR inh: suppresses PrP 5' UTR mRNA reporter expression; inhibition, % (no concentration beside the values); cell-based PrP 5' UTR mRNA reporter, plate reader; 340,000 compounds, 0.35% hits;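 active means every replicate at 50% or more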;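 further: 0 = median of the neutral control wells; tested in H4 reporter cells; numbers are from one replicate; inactives centre near -14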
# Mtb hypoxia inh: inhibitors of hypoxia-regulated fluorescent reporter in Mycobacterium tuberculosis. M. tuberculosis hypoxia-regulated fluorescent reporter, fluorescence. fluorescence inhibition, % (no concentration beside the values). 300,000 compounds, 0.1% hits;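 active means 35 to 45% if threefold the growth effect, above 45% if 1.5-fold the growth effect; inactive means the rest, general growth blockers included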;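 further: wells of about 50 µL received 100 nL stock; 0% = vehicle wells and 100% = reference inhibitor wells; whole bacteria with a GFP reporter of the hypoxia response; strong numbers were not always called active; many hits fall short of the cut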
# RN4220 kill: S. aureus RN4220 growth inhibition. 330,000 compounds, 0.33% hits. inhibition, % (no concentration beside the values). OD600, 16 h. AID 1259311;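 active means z-score of -3 or lower and OD600 up to 0.18 on both plates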;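 further: plate controls were untreated cells for no effect and reference antibiotic for full effect; stock transfer was 100 nL into about 80 µL; one replicate is shown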
# Sa ugtP lethal: growth inhibition of S. aureus ugtP deletion strain; growth inhibition, % (concentration not given with the values); S. aureus RN4220 ugtP deletion, OD600 growth, 16 h; some inactives read as strong as hits; AID 1259309; 330,000 compounds, 0.54% hits;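 active means z-score under -3 and OD600 up to 0.15 on both plates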;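 further: plate controls were untreated wells for no effect and antibiotic for full effect; wells of about 80 µL received 100 nL stock; the first replicate is given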
# BJeLR lethal: BJeLR cell viability loss | 300,000 compounds, 0.17% hits | BJeLR (HRASV12) viability, CellTiter-Glo ATP luminescence, 48 h; reference of the scale not given here | inhibition, % (test concentration not listed);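 active means replicate mean above 50%; inconclusive means above 50% but judged a plate artefact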;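 further: 50 nL library stock added to about 25 µL; numbers are from one replicate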
# Autofluor counter: counter-screen for toxin protease inhibitors: compound fluorescence; compound autofluorescence counterscreen, microsphere flow cytometry; stronger effect = higher value; fluorescence intensity (test concentration not listed); 360,000 compounds, 3.1% hits; AID 624483;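 active means at least 3 SD above the mean of all compounds, about 16000 in these data; inconclusive means too few beads counted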;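 further: 100 nL of 1 mM stock went into each well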
# Mtb hypoxia inh growth: second read-out of Mtb hypoxia inh, no call of its own (marks repeat the call); growth inhibition, %; measured here: M. tuberculosis growth (absorbance);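 0% = vehicle and 100% = reference antibiotic; read after six days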
# Numbers without * were called inactive; ? = inconclusive; · = not tested or not shown.
SMILES	PrP UTR inh	Mtb hypoxia inh	Mtb hypoxia inh growth	RN4220 kill	Sa ugtP lethal	BJeLR lethal	Autofluor counter
Cc1ccc(S(=O)(=O)N(C)c2ccc(OCC(=O)OCc3nnc(-c4ccccc4)o3)cc2)cc1	-21.7	-0.1	-8.3	7.3	14.7	·	6479
N#C/C(=C(/O)CN1C(=O)c2ccccc2C1=O)c1nc2ccccc2[nH]1	-15.3	·	·	·	·	-3.0	4485
CCn1c(SCC(=O)NCCOc2ccccc2)nc2ccccc2c1=O	-16.9	4.0	5.4	4.1	-4.9	13.3	2962
CCC1(CC)C(=O)C(C)(C)C(=O)OC1c1cccs1 (stereo unspecified)	0.4	·	·	4.7	-4.7	1.3	6005
COc1ccc2oc(=O)cc(-c3cc4cccc(OC)c4o3)c2c1	-0.1	0.9	-1.8	3.2	1.9	11.0	5913
CN(C)c1cccc(C(=O)N(Cc2ccccc2)Cc2ccccc2)c1	-9.8	-3.6	2.5	7.7	9.2	7.9	4305
CCOC(=O)c1cc(NC(=O)/C=C\C(=O)O)ccc1Cl	-10.5	-3.1	1.5	9.1	4.3	4.5	4462
COc1ccc(CCNC(=O)c2coc3ccccc3c2=O)cc1	-17.2	8.6	-2.8	3.3	-2.2	-10.2	3253
COc1ccc(CCNc2ncnc3nc[nH]c23)cc1OC	-9.5	-9.2	3.3	0.2	-23.1	12.9	6066
O=C(CSc1ccccn1)Nc1nonc1[N+](=O)[O-]	2.7	·	·	40.4	86.5*	23.0	3978
CC1=NN(C(N)=S)C(=O)C1N=Nc1ccc(O)cc1 (stereo unspecified)	5.4	-0.8	-3.3	7.9	33.9	-6.7	3600
C/C=C/Cn1c(N(C)Cc2ccccc2)nc2c1c(=O)[nH]c(=O)n2C	-21.3	6.5	3.8	3.1	10.9	5.2	5250
O=C(c1cccs1)c1coc2ccc(O)cc12	-101.2	15.8	5.9	9.4	0.3	-2.6	3707
COc1ccc2[nH]cc(C(O)CN3CCN(c4ccccc4)CC3)c2c1 (stereo unspecified)	·	1.3	13.2	-8.7	-6.3	19.1	·
Cc1ccc(C(C)NC(=O)c2ccco2)cc1 (stereo unspecified)	-4.2	·	·	6.7	9.5	2.4	?
O=C1N2c3ccccc3CCc3cccc(c32)C1(O)C(F)(F)F (stereo unspecified)	-15.7	11.7	8.8	15.4	5.5	-2.4	10186
N#CC1N(Cc2ccccc2)C(=O)C2CC3C=CC21O3 (stereo unspecified)	·	3.1	9.4	8.6	10.9	·	·
COc1cc(NC(=O)c2cc([N+](=O)[O-])ccc2NC(=O)CNC2CCCCC2C)cc(OC)c1 (stereo unspecified)	-2.9	12.1	2.0	-6.2	-19.5	5.3	5478
O=C(CO/N=C/c1ccccc1OC(F)F)NC1CCCC1	-11.0	·	·	·	·	-13.2	3315
O=C(CN1CCN(c2ccccc2F)CC1)c1ccc2cc[nH]c2c1	4.7	4.7	15.0	-10.0	-7.0	-15.1	6002
CC(C)C(NC(=O)NCCc1ccc(F)cc1)C(=O)O (stereo unspecified)	·	0.3	9.0	2.7	-2.6	·	·
CC(C)CN(CC(C)C)S(=O)(=O)N1CCC(C(=O)NCCN2CCOCC2)CC1	-23.0	8.2	1.9	5.0	-1.8	0.2	8832
O=C(CNC(=S)NC(=O)c1cccs1)c1ccccc1	-55.1	2.2	12.0	7.6	-4.3	-4.5	2174
CCOc1ccc(Br)cc1C(=O)NN=Cc1cccnc1	·	9.6	-0.8	-2.2	-3.2	·	·
CCCOc1c(Br)cc(C(=O)OCC(=O)NC(=O)c2cccn2C)cc1OC	-20.1	6.1	7.2	1.0	0.7	·	3497
N#CCc1nc(CSc2nc3ccccc3o2)cs1	-54.1	12.1	-3.1	3.1	6.6	-1.0	12694
CCOc1ccc(-c2nnn(CCC#N)n2)cc1OC	-18.2	7.7	8.9	7.0	15.0	1.6	4086
O=C(CCc1c[nH]c2ccccc12)NCC1COc2ccccc2O1 (stereo unspecified)	-7.4	-7.9	4.8	0.5	2.0	-1.3	4112
COCCN1CCN(C(=O)c2cc(COc3cc(C)ccc3C)on2)CC1	-63.3	7.2	-5.6	7.3	-4.7	-1.3	5101
O=C(Nc1ccc(Cl)cn1)c1ccc2c(Cl)c3c(nc2c1)CCC3	0.9	-9.0	-4.0	1.1	1.0	20.7	4119
CCOCCn1ccc2c(OCC(=O)NCCc3ccc(OC)c(OC)c3)cccc2c1=O	-14.7	7.2	-1.0	3.3	1.1	8.9	4569
COc1ccc(C(C(=O)NC2CCCCC2)N(CC2CCCO2)C(=O)CCCC(=O)Nc2ccccn2)cc1 (stereo unspecified)	-10.9	-3.5	3.1	4.6	6.0	-13.1	3734
O=C(Nc1cccnc1)Nc1ccc(Cl)cc1Cl	-15.0	-1.7	6.9	0.8	4.2	-3.2	2168
CSc1ccccc1C(=O)C1CCCN(C(=O)c2cc(C(C)C)no2)C1 (stereo unspecified)	-15.1	17.1	-0.2	4.2	3.8	4.5	4270
O=S(=O)(CCc1ccccc1)N=Cc1cccs1	·	4.7	-7.2	4.0	2.1	·	·
CN(Cc1ccccc1)C(=O)COC(=O)Cn1cnc2ccccc21	-2.3	15.0	8.5	9.1	4.4	-6.0	4363
COc1ccc(OCC(=O)Nc2c3c(nn2C(C)(C)C)CS(=O)(=O)C3)cc1	-9.2	7.0	-0.6	-1.0	3.6	-3.2	3957
Cc1c(Nc2nc(-c3ccc(Cl)cc3)cs2)c(=O)n(-c2ccccc2)n1C	3.1	9.6	7.4	6.2	14.2	-0.6	2515
CCOC(=O)c1sc(S(C)=O)c2c1CCc1conc1-2 (stereo unspecified)	·	-4.0	5.0	3.9	1.6	-1.9	·
O=C(CCn1cnnn1)Nc1ccc(Cl)cc1Cl	-8.3	10.4	0.0	-0.2	-0.8	-0.9	2583
COc1ccc(OC)c(-c2c(C#N)c(N)nc3c2c(=O)nc2sccn23)c1	4.7	-17.7	-7.6	3.8	-6.3	-12.5	3392
Cc1cccc(NCc2ccccc2OCc2ccccc2F)c1	-17.3	8.1	21.8	-2.0	34.2	-0.5	2037
C=CCNc1nc(C)c(C(C)=O)cc1C#N	-3.4	·	·	0.3	11.8	-1.5	2620
CC(=NNC(=O)c1ccncc1)c1cccc(Br)c1	-8.7	·	·	-1.2	-0.8	·	4014
COCCNC(=O)c1cc(-c2ccc(Cl)c(Cl)c2)on1	-50.4	0.5	8.9	14.1	13.1	-12.1	6320
Cc1ccc(OCC(=O)Nc2cc(S(=O)(=O)N3CCCCC3)ccc2C)c([N+](=O)[O-])n1	-16.9	7.5	-5.8	4.4	9.0	3.5	2470
Cc1cccc(CS(=O)(=O)Cc2ccc(C(=O)NC3CCCCCC3)o2)c1	-2.2	-8.3	-3.2	5.9	11.7	-8.6	6147
O=C(CCNC(=O)c1ccccc1Cl)Nc1cc(C(F)(F)F)ccc1Cl	-32.9	6.4	-2.6	2.3	-1.2	-1.6	2130
Cc1cc(OCC(=O)NNC(=O)CCc2ccccc2)ccc1Br	-7.9	6.1	5.1	-4.6	-8.3	0.2	5977
O=C(O)CN1C(=O)SC(Nc2ccc(Cl)cc2)C1=O (stereo unspecified)	-17.8	13.5	5.9	5.4	5.3	10.8	2872

# Going on with the list.
# Values run as follows: PrP UTR inh | Mtb hypoxia inh | Mtb hypoxia inh growth | RN4220 kill | Sa ugtP lethal | BJeLR lethal | Autofluor counter
- Cc1ccc(C=NNC(=O)CNC(=O)c2cccs2)cc1
  · | 9.6 | -5.8 | -0.6 | -0.4 | · | ·
- CCSCCNC(=O)c1cncc(Br)c1
  -10.0 | · | · | 0.9 | 5.6 | 0.6 | 4601
- c1ccc(N2CCN(Cc3ccsc3)CC2)nc1
  -19.7 | 19.2 | 5.1 | 5.3 | 3.7 | -6.3 | ?
- COc1cccc(C(=O)COc2cccc(NC(=O)c3ccco3)c2)c1
  -13.8 | 7.4 | -4.0 | -1.3 | 4.0 | 2.0 | 3288
- Oc1ccc(-c2[nH]ncc2-c2cnn(-c3ccccc3)c2)c(O)c1
  28.1 | 10.3 | -1.7 | 0.0 | 5.3 | 5.1 | 3323
- COc1ccc(O)c(/C=N\NC(=O)CCn2nnc3ccccc32)c1
  -12.7 | · | · | · | · | 0.9 | 2970
- O=C(NC1CCCCCC1)C(=S)NCCc1ccccc1
  -26.4 | 12.9 | 4.8 | -2.4 | -0.1 | -21.9 | 4389
- O=C(NCCC(=O)N1CCN(c2ccccn2)CC1)c1ccc([N+](=O)[O-])cc1
  -20.0 | 9.6 | 2.0 | 9.6 | 3.9 | · | 5013
- O=C(c1cccc(NS(=O)(=O)c2ccc(F)c(F)c2)c1)N1CCN(C(c2ccccc2)c2ccccc2)CC1
  2.0 | -4.8 | 13.0 | -7.3 | -21.5 | 3.1 | 2014
- O=C(CN1CCN(c2ccc(F)cc2)CC1)Nc1ccc(-n2cnnn2)cc1
  -9.8 | 3.5 | -2.0 | -0.3 | 5.3 | 0.5 | 4391

# Brought forward from above: three entries, then new ones.
# Values run as follows: PrP UTR inh | Mtb hypoxia inh | Mtb hypoxia inh growth | RN4220 kill | Sa ugtP lethal | BJeLR lethal | Autofluor counter
- O=C(NCCC(=O)N1CCN(c2ccccn2)CC1)c1ccc([N+](=O)[O-])cc1
  -20.0 | 9.6 | 2.0 | 9.6 | 3.9 | · | 5013
- O=C(c1cccc(NS(=O)(=O)c2ccc(F)c(F)c2)c1)N1CCN(C(c2ccccc2)c2ccccc2)CC1
  2.0 | -4.8 | 13.0 | -7.3 | -21.5 | 3.1 | 2014
- O=C(CN1CCN(c2ccc(F)cc2)CC1)Nc1ccc(-n2cnnn2)cc1
  -9.8 | 3.5 | -2.0 | -0.3 | 5.3 | 0.5 | 4391
- C/C(=N\O)C1/C(=N/O)CC2C1C2(C)C (stereo unspecified)
  -14.8 | · | · | · | · | 2.8 | 23424*
- CCCOc1ccc(NC(N)=O)cc1OCCC
  -27.9 | 1.4 | 1.7 | 1.3 | 2.1 | 6.3 | 3475
- CC(=O)N(Cc1ccccc1)C1CC(=O)N(Cc2ccccc2)C1=O (stereo unspecified)
  -0.4 | 18.9 | 8.4 | 6.8 | 10.3 | · | 3330
- O=C(NCc1nnc(SCC(=O)N2CCCc3ccccc32)o1)c1c(F)cccc1Cl
  -18.6 | 15.7 | -0.9 | 3.6 | 1.1 | -5.1 | 2534
- CC(C)c1nccn1S(=O)(=O)c1cc(Cl)ccc1Cl
  -2.6 | 16.0 | 7.1 | -4.4 | 0.4 | -3.5 | 3458
- CCOC(=O)CCC(NC(=O)CCCCCCCCC(=O)NC(CCC(=O)OCC)C(=O)OCC)C(=O)OCC (stereo unspecified)
  -9.7 | 24.5 | 7.6 | 2.4 | 6.0 | 2.1 | 2464
- O=C(NCc1nnc2c3ccccc3c(-c3ccccc3)nn12)c1ccccc1Cl
  -5.6 | -2.9 | 0.6 | 0.9 | -1.6 | 0.7 | 1989
- Cc1[nH][nH]c(=O)c1C=NCc1cccs1
  -15.4 | · | · | · | · | -4.1 | 2517

# Whole records, quoted from the list:
# `CC(C)c1nccn1S(=O)(=O)c1cc(Cl)ccc1Cl` as listed: PrP UTR inh = -2.6; Mtb hypoxia inh = 16.0; Mtb hypoxia inh growth = 7.1; RN4220 kill = -4.4; Sa ugtP lethal = 0.4; BJeLR lethal = -3.5; Autofluor counter = 3458
# `O=C(NCc1nnc2c3ccccc3c(-c3ccccc3)nn12)c1ccccc1Cl` as listed: PrP UTR inh = -5.6; Mtb hypoxia inh = -2.9; Mtb hypoxia inh growth = 0.6; RN4220 kill = 0.9; Sa ugtP lethal = -1.6; BJeLR lethal = 0.7; Autofluor counter = 1989

# Compounds as they come. About 4% of those tested had a hit in this group.
